miR-21 FLuc: raises the signal of a miR-21 reporter. 340,000 tested, under 10 active. AID 2288. Potency, µM (titrated, usually from 38.3 µM), without a hit: at the highest dose reporter change, positive = more light. HeLa miR-21 FLuc reporter, luciferase, 48 h; active = well fitted rising curve with a large enough effect; inconclusive = small, poorly fitted or top-dose-only effect; inactive = no such curve, though single readings can be large or run the other way;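 note: % of control where 0% means no effect; miR-21 action dims this reporter so a rising signal means less miR-21 action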
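Using DMEM plus 10% FBS, HeLa miR-21-FLuc cells are incubated with test compounds (final up to about 40uM) for 48 hours; firefly luciferase signal is then imaged following reagent-mediated lysis.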
GLA inh pH 4.5: alpha-galactosidase A (human) inhibition, pH 4.5; P06280; purified enzyme, 4-MU-alpha-Gal fluorescence, pH 4.5; activity change, negative = inhibition, % at 105 µM; 230,000 tested, under 10 active; inconclusive = small, poorly fitted or top-dose-only inhibition, or a rising curve; inactive = flat fitted curve, though single readings scatter; no compound was filed as active;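 note: 0% = full activity with enzyme and -100% = basal without enzyme; dose as in the result columns while the protocol names 77 µM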
Rango release inh: inhibition of RanGTP-driven Rango-importin beta dissociation | O95149+P62826 | Biochemical FRET Rango-importin beta, RanGTP-induced dissociation | Potency, µM (series often up to 46.1 µM), inactives show at the highest dose activity change, negative = inhibition | hit rate 0.071% among 340,000 | AID 540253; active means falling FRET ratio curve, often poorly fitted, with flat reads before Ran was added; inconclusive means other falling curves, or compound fluorescence or quenching; inactive means flat or rising ratio curve;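 note: potency is the fitted concentration of half-maximal effect; % of control where 0% means no effect; nearly all actives have a fitted effect of over 45% in size; -100% = wells without RanGTP and RCC1; the record marks most hits as doubtful in a second field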
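Compounds preincubate 5 min with complex of recombinant Rango and importin beta in PBS with 1 mM DTT. Ran (0.6 uM) loaded with 2 mM GTP plus 0.2 uM RCC1 starts dissociation; FRET is recorded 45 min later.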
Rango-impB inh: Rango-importin beta binding inhibition | Rango CFP/YFP FRET sensor + importin beta, 45 min | Potency, µM (titrated, usually from 92.2 µM), inactives show at the top dose inhibition of complex formation | hit rate 0.031% among 340,000; active = rising FRET ratio curve, often small or poorly fitted; inconclusive = mostly compound fluorescence or quenching in the first reads; inactive = flat curves in all reads;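 note: potency is the fitted concentration of half-maximal effect; 0% = DMSO wells and 100% = buffer wells lacking importin beta; nearly all actives have a fitted effect of over 15% in size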
Target sequence (Q14974 whole entry, looked up): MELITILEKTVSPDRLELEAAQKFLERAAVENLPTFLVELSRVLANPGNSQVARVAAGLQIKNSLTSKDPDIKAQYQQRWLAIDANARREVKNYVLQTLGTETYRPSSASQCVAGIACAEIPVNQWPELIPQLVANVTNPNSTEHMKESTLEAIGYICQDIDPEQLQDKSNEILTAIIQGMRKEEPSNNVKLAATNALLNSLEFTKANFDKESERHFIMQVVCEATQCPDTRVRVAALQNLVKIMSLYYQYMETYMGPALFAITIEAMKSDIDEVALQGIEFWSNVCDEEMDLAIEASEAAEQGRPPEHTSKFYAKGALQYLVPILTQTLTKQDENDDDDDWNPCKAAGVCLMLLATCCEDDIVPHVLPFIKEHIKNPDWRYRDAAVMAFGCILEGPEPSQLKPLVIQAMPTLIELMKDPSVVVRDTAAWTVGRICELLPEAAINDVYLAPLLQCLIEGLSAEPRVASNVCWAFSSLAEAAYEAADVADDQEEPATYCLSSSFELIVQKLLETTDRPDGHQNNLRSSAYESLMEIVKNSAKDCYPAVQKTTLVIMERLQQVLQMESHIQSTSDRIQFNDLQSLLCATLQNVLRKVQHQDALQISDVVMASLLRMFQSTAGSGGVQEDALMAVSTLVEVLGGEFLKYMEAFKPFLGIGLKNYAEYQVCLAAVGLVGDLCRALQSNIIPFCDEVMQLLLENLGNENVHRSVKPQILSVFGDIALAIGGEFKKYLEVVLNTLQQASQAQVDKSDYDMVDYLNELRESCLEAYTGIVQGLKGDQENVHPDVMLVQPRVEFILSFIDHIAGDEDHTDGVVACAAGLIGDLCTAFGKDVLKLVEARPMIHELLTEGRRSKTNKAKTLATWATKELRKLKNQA
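FRET biosensor (snurportin 1 IBB flanked by EYFP and cerulean), 50 nM, with compound 5 min, then 0.125 microM importin beta in PBS, 1 mM DTT, 0.02% Tween-20, 0.1% BSA. CFP/YFP ratio read after 45 min at room temperature; pre-read flags interference.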
Starred values were filed as active, the others as inactive; ? = inconclusive; / = no result given; & = joins results of further samples; [ ] = dose if it differs, or a comment.

miR-21 FLuc | Rango release inh | Rango-impB inh | GLA inh pH 4.5 | Compound
-4% | 1% | -2.7% | -1 | COC(/C=C/Nc1ccc(C)c(C)c1)=C(C#N)C#N
-7% | 5% | -1.0% | 4 | COc1ccc(Cl)cc1NC(=O)CCNC(=O)OCc1ccccc1
13% | 5% | 0.3% | 6 | O=C(NCCc1ccccc1)N1c2ccccc2Sc2ccccc21
-32% | ? | ? | -5 | O=[N+]([O-])c1ccc(C2=NN(c3ccccc3)C(c3ccco3)C2)cc1 (configuration not stated)
-9% | 2% | -2.8% | / | CC1(C(=O)NCCOc2ccccc2Cl)CC1(Cl)Cl (configuration not stated)
20% | 5% | -2.5% | 3 | COc1ccc2nc(-c3ccc(N)cc3)[nH]c2c1
-9% | 19% | 7.3% | 3 | CCN1CCN(S(=O)(=O)c2ccc(Br)s2)CC1
/ | -12% | -0.2% | / | CC(=O)Nc1ccc(NC(=O)C(C)OC(=O)C2CCN(S(=O)(=O)c3ccccc3C(F)(F)F)CC2)cc1 (configuration not stated)
-39% | -4% | -1.1% | 1 | Cc1ccc(-c2cc(C(F)F)nc(NCC3CCCO3)n2)cc1 (configuration not stated)
9% | 23% | 4.6% | 3 | NNC(=O)CNC(c1ccccc1)c1cc(Br)ccc1NC(=O)c1ccccc1Br (configuration not stated)
-6% | 0% | -0.4% | 7 | CCOC(=O)C1C(=O)CC(C)(O)C(C(=O)OCC)C1c1ccc(OCC)cc1 (configuration not stated)
-28% | -1% | -1.6% | -7 | NC(=O)Cn1nnc(-c2ccc(C(F)(F)F)cc2)n1
3% | -13% | 0.2% | -2 | CCOC(=O)C(NC(=O)NCc1ccc(F)cc1)(OCC)C(F)(F)F (configuration not stated)
-1% | 4% | ? | -2 | C#CCOCCOCCOCCNc1nc(N2CCN(C(=O)[C@H]([C@@H](C)CC)n3cc([C@@H](N)Cc4ccc(O)cc4)nn3)CC2)nc(N2CCN(C(=O)[C@H](Cc3ccc(O)cc3)n3cc([C@@H](N)CC(C)C)nn3)CC2)n1
7% | -6% | 3.7% | 5 | O=C(O)c1ccccc1SC1CC(=O)N(c2cccc3ccccc23)C1=O (configuration not stated)
-4% | -5% | 1.8% | -8 | O=C(Nc1ccccc1NC(=O)c1c(F)c(F)c(F)c(F)c1F)c1c(F)c(F)c(F)c(F)c1F
/ | 0% | -5.1% | / | OCC[C@H]1C[C@H](O)[C@@H](O)[C@@]2(Cc3ccccc3O2)O1
1% | 7% | -0.1% | / | CCN1C(=O)C(CC(=O)Nc2ccccc2Cl)N(NC(=O)c2cccc(F)c2)C1=S (configuration not stated)
-4% | -1% | 1.0% | 12 | Cc1ccc(N2C(=O)CC(Cc3cccc(C)c3)C2=O)cc1 (configuration not stated)
-34% | 0% | 2.6% | -17 | Cc1ccc2c(c1)c(C)c(C)n2CC(O)Cn1nnc2ccccc21 (configuration not stated)
/ | 2% | 3.6% | / | O=C(NCCS(=O)(=O)N1CCN(c2ccccc2F)CC1)c1c(F)cccc1F
/ | -10% | -6.5% | / | Cc1ccc(Nc2ncnc(Cl)c2N)cc1
-53%&-6% | 5% | -0.5% | / | Cc1c(C(=O)Nc2ccccc2F)sc2nc3n(c(=O)c12)CCC3
-6% | 11% | 0.5% | / | Cc1cc(C)c(NC(=O)CCCCCNC2CCCCC2)c(C)c1
13% | -3% | 1.9% | -6 | CCn1c(Cc2ccccc2)nnc1SCC(=O)Nc1nc(C)cs1
-14% | -10% | 0.5% | 2 | O=C(c1ccc2c(c1)OCCO2)N(c1ccccn1)C1CCCCC1
3% | -11% | -4.9% | 1 | CCOc1ncccc1C(=O)OCC(=O)Nc1ccc2c(c1)OCO2
? | -9% | -0.3% | -23 | CS(=O)(=O)c1ncc(Cl)c(C(=O)Nc2ccc3ccccc3c2)n1
/ | -1% | -0.7% | / | O=C1OC(c2ccccc2)Sc2ccccc21 (configuration not stated)
-3% | -19% | -1.1% | / | CCC(=O)Nc1nc(C)c(C(=O)Nc2cccc(Cl)c2)s1
-9% | -3% | -6.9% | -26 | CCOC(=O)c1sc(NC(=O)CSc2nnc(-c3ccco3)n2CC)c(C(=O)OCC)c1C
-2% | -2% | -0.8% | -13 | CCOc1cc(C)nc(Oc2ccc(=O)[nH]n2)n1
10% | / | / | 2 | Cc1nc(NC(=O)c2ccccc2)sc1-c1csc(Nc2cccc(Cl)c2)n1
3% | -3% | 3.3% | / | O=C(Cc1ccccc1)NCC(=O)OCC(=O)c1ccc(Cl)cc1
/ | -4% | 1.1% | / | COc1cc(C(=O)NC2CCCCCCC2)cc(OC)c1OC
/ | -10% | -0.5% | / | Cc1cc(=O)[nH]c(SCC(=O)Nc2ccc(N3CCCCC3)cc2)n1
1% | -7% | -1.1% | -16 | COc1ccc(-c2noc(C3CCCN(S(=O)(=O)c4cccc(Cl)c4C)C3)n2)cc1OC (configuration not stated)
-54% | 4% | 1.7% | -7 | N#C/C(=N\Nc1ccccc1)C(=N)N1CCCCC1
6% | 4% | -0.5% | -2 | CCN(C(=O)Cn1c(=O)n(Cc2ccccc2)c(=O)c2ccccc21)c1cccc(C)c1
0% | 1% | -1.5% | 7 | O=C(NC1CCCCC1)C(c1ccc(F)cc1)N(CCN1CCOCC1)C(=O)c1ccc(-c2ccccc2)[nH]1 (configuration not stated)
-14% | 3% | -2.3% | / | Cc1ccc(-c2nnc(CN3CCN(C)CC3)o2)cc1
5% | -14% | -2.1% | -1 | CC(=O)NC1CCCN(O)C(=O)/C=C(\C)CCOC(=O)C(NC(C)=O)CCCN(O)C(=O)/C=C(\C)CCOC(=O)C(NC(C)=O)CCCN(O)C(=O)/C=C(\C)CCOC1=O (configuration not stated)
-9% | -4% | -0.1% | -5 | Cc1cc(C)nc(SCc2nnc(SCC(=O)Nc3nc(-c4ccccc4)cs3)n2C)n1
-1% | ? | ? | -3 | O=C(CN1N=C(c2ccccc2)CCC1=O)NCc1cccs1
-9% | -4% | 1.3% | -2 | Cc1ccc(CC(=O)N(Cc2ccccc2)c2ccccn2)cc1
/ | 14% | 4.1% | / | CCOC(=O)C1=C(C)N(CCCC(=O)O)C(=O)NC1C(CC)CC (configuration not stated)
-27% | -10% | 0.7% | -5 | CCOC(=O)c1ccc(NC(=O)c2cc3ccccc3o2)cc1
0% | ? | ? | -14[21.1 µM] | CCN1CCN(CCCNC(=O)c2ccc(/C=C3/Sc4ccccc4N(Cc4ccccc4F)C3=O)cc2)CC1

Part of the list above in order of molecular weight, high to low:
miR-21 FLuc | Rango release inh | Rango-impB inh | GLA inh pH 4.5 | Compound
0% | 1% | -1.5% | 7 | O=C(NC1CCCCC1)C(c1ccc(F)cc1)N(CCN1CCOCC1)C(=O)c1ccc(-c2ccccc2)[nH]1 (configuration not stated)
1% | -7% | -1.1% | -16 | COc1ccc(-c2noc(C3CCCN(S(=O)(=O)c4cccc(Cl)c4C)C3)n2)cc1OC (configuration not stated)
/ | 14% | 4.1% | / | CCOC(=O)C1=C(C)N(CCCC(=O)O)C(=O)NC1C(CC)CC (configuration not stated)
-14% | 3% | -2.3% | / | Cc1ccc(-c2nnc(CN3CCN(C)CC3)o2)cc1

Additional compounds:
miR-21 FLuc | Rango release inh | Rango-impB inh | GLA inh pH 4.5 | Compound
4% | ? | ? | / | Cc1ccc2c(c1)c(=O)c1c3n2CCN(C(=O)CCl)C3CC1 (configuration not stated)
-10%&-12% | -4% | -0.6% | / | Cc1ccc(NC(=O)Cn2c(=O)oc3ccccc32)cc1C
1% | -8% | -3.6% | 14 | CCCCC(=O)NC(=S)Nc1cc(C(=O)O)ccc1Cl
-2% | 2% | -1.3% | 0 | CC12CCC(C(=O)NCc3ccc(F)cc3)(OC1=O)C2(C)C (configuration not stated)
/ | -12% | 2.1% | / | COc1ccc(CN2C(=O)C(C)Nc3ncnc(N4CCN(c5ccccn5)CC4)c32)cc1 (configuration not stated)
/ | -8% | -0.9% | / | N#CCc1ccccc1C(=O)OCC(=O)N(Cc1ccccc1)Cc1ccccc1
-1% | -4% | 2.1% | -1 | CCCCCCCC(=O)NNC(=O)c1ccc(F)cc1
/ | 2% | -0.1% | / | CC(C)(C)OC(=O)C[C@@H]1C/C=C\C[C@@H](CC(=O)N(CCO)Cc2ccccc2)C(=O)N[C@H](C(C)(C)C)COC1=O
-12% | -20% | -1.3% | -3 | COc1cc2c(cc1OC)C(COc1ccccc1OC)N(C(=O)C(C)C)CC2 (configuration not stated)
2% | 5% | 4.0% | 1 | CC(C)CNC(=O)C1CCN(c2ccc(S(=O)(=O)N3CCOCC3)cc2)CC1
-1% | 4% | -1.7% | 0 | CC1=C(C(N)=O)C(c2sccc2C)n2nnnc2N1 (configuration not stated)
9% | -15% | 6.1% | 1 | CC1(C)CCCN(C(=O)N2c3ccccc3Sc3ccccc32)C1

6 entries out of the list above, arranged by the value under miR-21 FLuc, highest first.
mol,miR-21 FLuc
O=C(NCCc1ccccc1)N1c2ccccc2Sc2ccccc21,13%
Cc1nc(NC(=O)c2ccccc2)sc1-c1csc(Nc2cccc(Cl)c2)n1,10%
O=C(O)c1ccccc1SC1CC(=O)N(c2cccc3ccccc23)C1=O (configuration not stated),7%
CCN1C(=O)C(CC(=O)Nc2ccccc2Cl)N(NC(=O)c2cccc(F)c2)C1=S (configuration not stated),1%
COc1ccc(Cl)cc1NC(=O)CCNC(=O)OCc1ccccc1,-7%
Cc1ccc(-c2cc(C(F)F)nc(NCC3CCCO3)n2)cc1 (configuration not stated),-39%

Later entries
miR-21 FLuc | Rango release inh | Rango-impB inh | GLA inh pH 4.5 | Compound
-1% | 3% | -0.5% | -22 | CCN(CC)c1ccc(/C=N\N2CCN(Cc3ccc(C)cc3)CC2)cc1
-3% | 26% | 1.8% | 3 | Cn1cc(S(=O)(=O)c2ccccc2)n(C)c1=O
/ | 8% | 1.5% | / | CN1CCN(C(=O)c2ccccc2NS(=O)(=O)c2ccc(F)cc2)CC1
-52% | 18% | 1.3% | 5 | COc1ccc(-c2nnc(SCC(=O)Nc3ccccc3OC)o2)cc1
-2% | / | / | 9 | CSc1nc2sc3c(c2c2nnnn12)CCC3
0% | -1% | 5.1% | -5 | CCOC(=O)C1=C(C)N(C)C(=O)NC1c1cc2c(cc1Br)OCO2 (configuration not stated)
0% | 4% | 2.4% | -1 | COc1ccccc1/C=C/C(=O)NC(=S)NC(C)C
-25% | -2% | -1.7% | 10 | CC(=O)N1CCN(c2ccc(NC(=O)c3ccc4c(c3)OCO4)cc2)CC1
-6% | -4% | -0.1% | / | CC(C)[C@H](NS(=O)(=O)c1ccc(Cl)cc1)C(=O)OCC(=O)NCCN1C(=O)CSC1=O
-12% | -9% | -1.2% | 3 | COc1ccc([N+](=O)[O-])cc1NCc1cccnc1
1% | 0% | 6.0% | 13 | Cc1cc(NC(=O)CSc2nnnn2C)n(-c2ccccc2)n1
-4% | -9% | -2.6% | -4 | O=C(OCC(=O)N1CCOCC1)c1ccc(Cl)nc1
-1% | 15% | -0.5% | / | COc1ccc2c(C)c(CC(=O)N3CCN(C(=O)C4COc5ccccc5O4)CC3)c(=O)oc2c1C (configuration not stated)
-8% | -8% | -0.7% | -2 | Cc1cccc(Cc2cnc(N3C(=N)SC(c4ccccc4)C3=O)s2)c1 (configuration not stated)
7% | -21% | ? | 11 | O=c1[nH]cnc2sc3c(c12)CCN(Cc1ccccc1)C3
6% | 1% | 0.7% | 4 | O=C(OC(C(=O)O)C(OC(=O)c1ccccc1)C(=O)NCc1ccccc1)c1ccccc1 (configuration not stated)
/ | -9% | -0.7% | / | CC(=O)O[C@H]1C[C@@H]2CC[C@@H]3[C@H](CC[C@@]4(C)[C@H]3C[C@H]([N+]3(C)CCCCC3)[C@@H]4OC(C)=O)[C@@]2(C)C[C@@H]1[N+]1(C)CCCCC1
-3% | -4% | -1.4% | 0 | Cc1ccccc1CC1(CO)CCCN(Cc2ccn[nH]2)C1 (configuration not stated)
-1% | 1% | 2.3% | / | CCCn1c(CCNc2nc(-c3ccc(OC)cc3)cs2)nc2ccccc21
-23% | -6% | -1.1% | -7 | CC1=NN(C(N)=S)C(=O)C1N=Nc1c(C)cc(C)cc1C (configuration not stated)

Screens: PubChem, National Center for Advancing Translational Sciences (NCATS)

This is a subset (hit frequency here may not be typical).
